NPYLR7 agonist: mosquito NPYLR7 agonism. HEK293T NPYLR7/Galpha15, GCaMP6s calcium fluorescence. activation, % at 10 µM. hit rate 0.15% among 270,000. AID 1259423; in the data active = activation above about 40%;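 note: 0% = vehicle and 100% = reference agonist at the receptor; some compounds past the cut are filed as inactive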
NPYLR7 agonist max-min: further read-out of NPYLR7 agonist, marked with its call; activation, %; measured here: Max-Min RFU normalised activation; some inactives read as strong as hits;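 span of the calcium signal over five minutes; 0% = vehicle and 100% = native peptide agonist; compound fluorescence can raise it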
Active calls of the source: *; & = joins results of further samples.

Results follow in this order: NPYLR7 agonist	NPYLR7 agonist max-min
1) CCC(C)(C)C1CCC(=O)C(C2(O)C(=O)Nc3ccccc32)C1 (centres undefined)
  18	12
2) C#Cc1cccc(N(CC)Cc2csc(CS(C)(=O)=O)n2)c1
  7	6
3) O=C(NC1CC(=O)N(C2CCCCCC2)C1)c1cnccn1 (centres undefined)
  2	-2
4) CCCN(CCC)C(=O)c1cc2c(=O)n3ccccc3nc2s1
  4	-1
5) O=C(NCCc1ccc2c(c1)OCO2)c1cccc(S(=O)(=O)N2CCOCC2)c1
  1	7
6) CCOc1ccc2nc(SCc3noc(C4CC4)n3)[nH]c2c1
  0	12
7) CCOC(=O)c1sc2nc(C)nc(NCC(C)C)c2c1C
  -4	-4
8) Clc1ccc(C2=Nc3nc(-c4ccccc4)nn3C(c3ccc4c(c3)OCO4)C2)cc1 (centres undefined)
  6	9
9) Cc1nn(C(=O)CNS(=O)(=O)c2ccccc2)c(C)c1Sc1ccc(Cl)cc1
  8	9
10) Cc1ccc(-c2cn[nH]c2C2CCCN(C(=O)CCn3cnnn3)C2)cc1 (centres undefined)
  22	6
11) CC(CC(=O)Nc1ccccc1)NC(C)c1cccc(Br)c1 (centres undefined)
  -5	-5
12) CNC(=O)c1ccc(Cn2c(=O)c3cc(OC)c(OC)cc3n(Cc3cccc(C)c3)c2=O)cc1
  5	4
13) N#Cc1ccc(C=NN=C(N)N)cc1
  3	1
14) O=C(c1cn(-c2ccccc2C(F)(F)F)nn1)N1CCCN(CC2CCCO2)CC1 (centres undefined)
  5	2
15) Cc1ccc(C2(c3noc(COc4cccnc4N)n3)CCCC2)cc1
  5	-2
16) COc1cn(CC(=O)NCc2ccc(F)cc2)c(CN2CCN(C(C)=O)CC2)cc1=O
  3	1
17) COc1cc(-c2nc(C=Nc3ccc(Cl)cc3Cl)c(O)o2)cc(OC)c1OC
  -2	-6
18) CN(CC(=O)NC1CC1)C(=O)c1ccc(Cl)c(Cl)c1
  6	5
19) COCCC(=O)NCc1cccnc1N1CCCC(O)C1 (centres undefined)
  -4	-9
20) C=CC(C)(O)CNc1ccc(-n2nc(OCCOCC)nc2-c2ccc(C(F)(F)F)cc2)cc1 (centres undefined)
  12	13
21) CCN(/C=C(/Br)C(=O)C(F)(F)F)CC
  10	8
22) COc1cccc(CN2CCN(CC3CCOC(C)(C)C3)CC2=O)c1 (centres undefined)
  5	5
23) CCOC(=O)c1c(C)n(-c2ccc(Cl)cc2)c2c1cc(O)c1ccccc12
  0	-1
24) CCC(C)(Cn1c(=O)[nH]c2cc(Cl)ccc2c1=O)N1CCOCC1 (centres undefined)
  -25&9	-26&5
25) COc1ccc(NC(=O)c2ccc(CN3CCC[C@@H]3C(N)=O)cc2)cn1
  8	-2
26) CN(CCCC1CCCO1)Cc1cc2n(n1)CCNC2 (centres undefined)
  2	3
27) COc1ccc(S(=O)(=O)Oc2ccc(CN(CC3CCCO3)C(=O)c3ccccc3Cl)cc2)cc1 (centres undefined)
  7	10
28) CCN(CC)CCn1c2c(c(SCC(=O)Nc3cccc4ccccc34)nc1=O)CCCC2
  -1	1
29) N#Cc1ccc(OCCn2nccc2-c2ccncc2)cc1
  7	2
30) OCc1ccccc1-c1nc(NCC2CC2)nc2ccsc12
  4	-1
31) COCC(=O)N(Cc1ccc(OS(=O)(=O)c2ccc(F)cc2)cc1)CC(C)C
  -10	-5
32) C=CCOCC(O)CN(CCc1nc(-c2ccc(C)c(Cl)c2)no1)Cc1ccco1 (centres undefined)
  14	13
33) CC(C)(C)c1cc2nc(-c3ccccc3F)cc(C(=O)N3CCN(c4cccc(C(F)(F)F)c4)CC3)n2n1
  -9&-4	-5&12
34) COCCNC(=O)C(NC(=O)c1cccc(OC)c1)C1CCN(C(=O)c2ccc(OC)cc2)CC1 (centres undefined)
  7	7
35) CCCOC1CCCN(C(=O)c2cc(-c3ccc(C)s3)[nH]n2)C1 (centres undefined)
  3	2
36) COC(=O)c1ccc(NC(=O)CSc2nc(=O)n3ccccc3n2)cc1
  1	-2
37) O=C(N[C@H](CO)[C@H](O)c1ccc([N+](=O)[O-])cc1)C(Cl)Cl
  -6	-10
38) CCOc1ccc(C2=NC(=Cc3ccsc3)C(=O)O2)cc1
  3	7
39) Cc1cc(N2CCCN(Cc3cc(-c4ccccc4)no3)CC2)ccn1
  -4	-10
40) CCCCCCSc1nc(-c2ccc(OC)cc2)cc(-c2ccccc2)c1C#N
  2	-4

Record cards, from the list above:
Listed for Cc1cc(N2CCCN(Cc3cc(-c4ccccc4)no3)CC2)ccn1 : NPYLR7 agonist = -4; NPYLR7 agonist max-min = -10
Listed for CCCOC1CCCN(C(=O)c2cc(-c3ccc(C)s3)[nH]n2)C1 (centres undefined) : NPYLR7 agonist = 3; NPYLR7 agonist max-min = 2

The listing picks up, repeating the 2 entries before the break.
Results follow in this order: NPYLR7 agonist	NPYLR7 agonist max-min
39) Cc1cc(N2CCCN(Cc3cc(-c4ccccc4)no3)CC2)ccn1
  -4	-10
40) CCCCCCSc1nc(-c2ccc(OC)cc2)cc(-c2ccccc2)c1C#N
  2	-4
41) O=c1c2cnc3ncnn3c2ccn1CCc1c[nH]c2ccc(Cl)cc12
  4	8
42) C=CCOCC(O)CN(Cc1c(-c2ccccc2)noc1N1CCCCC1)CC1CCCO1 (centres undefined)
  9	12
43) CC(C)N(CC(=O)N(CCc1c[nH]c2ccccc12)Cc1ccc(C(F)(F)F)cc1)C(=O)C1C[C@H]1c1ccccc1 (some centres undefined)
  5	17
44) CNC(=O)C(C)CNc1nccc(C2CCCC2)n1 (centres undefined)
  7	4
45) O=c1c2cc3c(=O)n(-c4ccccn4)ccc3nc2ccn1CC1CCCO1 (centres undefined)
  2	8
46) COC(=O)CCCC(=O)N1CCC(Cc2ccc(F)cc2)CC1
  3	3
47) CSc1ccc(CN2CCC2(C)C(=O)NCC2CCCCC2)cc1 (centres undefined)
  2	4
48) O=C(C1CCCCC1)N(Cc1ccccn1)c1nc2ccccc2s1
  -5	-11
49) COc1cccc(CSc2nnc(C(C)NC(=O)c3ccc(Cl)cc3Cl)n2-c2ccc([N+](=O)[O-])cc2)c1 (centres undefined)
  -3	-2
50) Cc1ccc2nc(C(NC3CCSCC3)C(C)C)[nH]c2c1 (centres undefined)
  4	0
51) O=C(CNC(=O)c1cccc(Br)c1)N=Nc1c(O)[nH]c2ccccc12
  14	5
52) C[C@@H]1CN(c2ccnc(C(=O)NCc3cn4ccccc4n3)c2)C[C@H](C)O1
  4	3
53) CCOC(=O)c1c(NC(=O)c2ccc(Br)cc2)sc(C(=O)Nc2cccc(Cl)c2)c1C
  4	14
54) Cc1noc(C)c1C(=O)NCC1CCN(c2ccc(OC(F)(F)F)cc2)C1 (centres undefined)
  5	4
55) O=C(CSc1nc(=O)n(CCCN2CCOCC2)c2c1CCC2)Nc1nccs1
  -3	-7
56) Cc1nonc1CN(C)Cc1cn(-c2ccccc2)nc1-c1ccc2c(c1)OCO2
  7	-12
57) CCCC(NCc1nc2cc(Cl)ccc2c(=O)[nH]1)c1ccccc1 (centres undefined)
  8	2
58) COCC(=O)Nc1ccc(N2CCN(C(=O)c3ccc(F)c(F)c3)CC2)nc1
  4	1
59) CCOC(=O)c1c(NC(=O)CSc2nnc3sc4ccccc4n23)sc(C(=O)OC)c1C
  0	-4
60) CCOC(=O)c1sc(NC(=O)c2ccco2)nc1-c1ccccc1
  16	16
61) Cc1nnc(CN(C)Cc2cn(-c3ccccc3)nc2-c2ccc3c(c2)OCO3)o1
  24	6
62) COc1cccc(-c2nc3ccccn3c2NC(=O)C(Cl)Cl)c1
  -8	-7
63) COc1ccc(-c2noc(CN3CCCC(c4ccc(Cl)cc4)C3)n2)c(OC)c1OC (centres undefined)
  6	2
64) CCc1nc2n(n1)C(=O)C(C(c1ccc(Cl)cc1)N1CCC(O)CC1)S2 (centres undefined)
  -5	-10
65) CN(CCN1C(=O)NC(C)(C)C1=O)c1ccc(Oc2ccccc2)cc1
  -2	-2
66) CC(C)[C@H](NC(=O)c1ccc(Br)cc1)c1nnc2c(C(F)(F)F)cccn12
  -1	-8
67) O=C(NCCNc1ccc([N+](=O)[O-])cn1)C1CC=CCC1C(=O)N1CCc2c([nH]c3ccccc23)C1 (centres undefined)
  -8	-14
68) CCC(=O)N1CCC1(C)C(=O)NS(=O)(=O)c1ccc(OC)cc1 (centres undefined)
  2	0
69) COC(=O)[C@@H]1CCCN1Cc1nc(-c2cc(OC)c3c(c2)OCO3)oc1C
  -14	-12
70) O=C(NCc1ccco1)N1CCN(C(c2ccccc2)c2ccccc2)CC1
  -4	-18
71) CCCn1ccnc1CN1CCCC2(C1)C(=O)N(C)c1ccccc12 (centres undefined)
  0	-4
72) Cc1n[nH]c(C)c1Sc1ccccc1-n1cnnc1
  15	16
73) CCCC1=NS(=O)(=O)c2cc(NC(=O)C(C)C)ccc2N1Cc1ccc(F)cc1
  26	14
74) O=C(CCN(CCCN1CCOCC1)c1nc(-c2ccco2)nc2ccccc12)N1CCCC1
  -5	4
75) COc1ccc(CCN(Cc2cccs2)C(=O)CN(C(=O)Nc2ccc(F)c(Cl)c2)C(C)C)cc1OC
  -2	3
76) COC(=O)c1ccccc1SCc1csc(Cc2ccc(C)cc2)n1
  23	28
77) CCNC(=O)c1ccc(Nc2c(Oc3ccc(Cl)cc3)cnn(-c3ccc(OC)cc3)c2=O)cc1
  10	6
78) COc1cccc(C2C(C(=O)c3cccs3)=C(O)C(=O)N2CCCN2CCOCC2)c1OC (centres undefined)
  -2	-3
79) CCCC1(c2ccccc2)NC(=O)N(CC(=O)N2CCOCC2)C1=O (centres undefined)
  1	-1
80) Cc1cccc(C(=O)N2CCCC(OCc3ccc(OC(F)(F)F)cc3)C2)c1 (centres undefined)
  -3	0
81) Cc1occc1-c1nnc(SCC(=O)Nc2cc(C(C)(C)C)no2)n1C
  6	0
82) COc1ccccc1C(=O)Nc1cccc(NC(=O)C2[C@@H]3[C@H]4CC[C@H](C4)[C@H]23)c1 (some centres undefined)
  -6	-10
83) O=C1NCCN2CCN(Cc3cn[nH]c3C3CCCCC3)CC12 (centres undefined)
  6	2
84) COc1cc(NC(=O)c2ccc(C)c(F)c2)c(C(=O)N2C(C)CCCC2C)cc1OC (centres undefined)
  5	3
85) Cc1cccc(COn2cccc(C(=O)Nc3cc(C)ccc3C)c2=O)c1
  17	14
86) CC(C)(CNCc1ccc(Cl)c2cccnc12)S(C)(=O)=O
  -23&7	-25&6
87) Clc1ccc(Nc2nc3ccccc3n3cnnc23)cc1Cl
  7	2
88) Cn1nnc(NCc2cccc3ccccc23)n1
  -4	23
89) CN(CC(=O)Nc1ccc2c(c1)OCCO2)C1CCCc2ccccc21 (centres undefined)
  6	4
90) O=C(Nc1c2c(nn1-c1ccccc1)CSC2)c1ccc(N2C(=O)CCC2=O)cc1
  0	-1
91) Cc1cc(NC(=O)CCc2cccc(F)c2)n(C)n1
  2	1
92) Brc1cnn(-c2nn[nH]n2)c1
  -13	-20
93) CCCSc1nc(-c2ccccc2)cc(-c2ccccc2OC)c1C#N
  -2	-9

Reformatted field by field: entries from further up.
91: Cc1cc(NC(=O)CCc2cccc(F)c2)n(C)n1
  NPYLR7 agonist: 2; NPYLR7 agonist max-min: 1
86: CC(C)(CNCc1ccc(Cl)c2cccnc12)S(C)(=O)=O
  NPYLR7 agonist: -23&7; NPYLR7 agonist max-min: -25&6
90: O=C(Nc1c2c(nn1-c1ccccc1)CSC2)c1ccc(N2C(=O)CCC2=O)cc1
  NPYLR7 agonist: 0; NPYLR7 agonist max-min: -1
92: Brc1cnn(-c2nn[nH]n2)c1
  NPYLR7 agonist: -13; NPYLR7 agonist max-min: -20

Screens as filed in PubChem.

These rows are one share of the data; rates above refer to the full screens.
